Assay outcomes deposited in PubChem BioAssay by National Center for Advancing Translational Sciences (NCATS).
HPGD block = qHTS Assay for Inhibitors of HPGD (15-Hydroxyprostaglandin Dehydrogenase) | Potency, µM, for inactives: at the top dose activity change, negative = inhibition, usual class: inhibitors | purified HPGD, NADH fluorescence kinetic, PGE2 substrate | actives 4.3% (n = 150,000) | 15-hydroxyprostaglandin dehydrogenase [NAD(+)] (Homo sapiens), P15428; active = well fitted inhibition curve with a large enough effect (not every such curve was filed as active); inconclusive = small, poorly fitted or top-dose-only effect, or another doubt; inactive = no such curve, though single readings can be large or run the other way;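 also: top concentration of the series not given in the record; plate controls included wells without enzyme; inactives centre near -10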
Target sequence (P15428 whole entry, looked up): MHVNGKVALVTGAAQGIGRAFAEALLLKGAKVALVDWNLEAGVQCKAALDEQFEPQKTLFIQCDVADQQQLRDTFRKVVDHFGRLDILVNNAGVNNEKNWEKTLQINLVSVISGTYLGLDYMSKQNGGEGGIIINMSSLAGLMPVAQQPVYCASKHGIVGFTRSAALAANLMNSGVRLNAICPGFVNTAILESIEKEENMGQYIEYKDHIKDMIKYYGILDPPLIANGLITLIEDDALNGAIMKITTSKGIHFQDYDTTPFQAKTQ
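NADH formation kinetics: reaction with 30 uM PGE2 and 1 mM NAD+ (final), 20 nM enzyme, Tris-HCl pH 8 with Tween 20, after 15 min compound preincubation at room temperature. Fluorescence change, last versus first of five reads.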
* hit, by the source's call; ? = inconclusive; & = joins results of further samples. % is scaled to controls: 0 for no effect and ±100 for the full control effect; potency is read from the fitted curve at half-maximal effect. The list is partial, so the mix of outcomes need not match the whole.

SMILES	HPGD block
CCNC(=O)CN(CCc1ccccc1)S(=O)(=O)c1ccc(OC)cc1	5%
Cc1ccn(C(=O)c2ccc(NC(=O)C3CCCCC3)cc2)n1	-14%
Cc1ccc(N2C(=O)C3C4C=CC(CNC(=S)Nc5ccc(F)cc5)(O4)C3C2=O)cc1 (stereo not drawn)	18µM*
CCN(C(=O)Cc1cccs1)c1nnc(-c2cc(OC)c(OC)c(OC)c2)s1	?
COc1c(Cl)cnn(-c2ccccc2)c1=O	-3%
CCOC(=O)c1c(C)[nH]c(C(=O)C(C)OC(=O)c2cccc(OCc3c(C)noc3C)c2)c1C (stereo not drawn)	?
O=S(=O)(NN=C1CCCCCCC1)c1ccc(Br)cc1	-5%
CC1CCN(C(=O)c2cc(-c3ccc(Cl)c(Cl)c3)on2)CC1	14µM*
CCc1nc(SCC(=O)NCC2CCCO2)c2oc3ccccc3c2n1 (stereo not drawn)	-21%
O=C(c1ccc2c(c1)N(Cc1ccccc1)C(=O)CS2)N1CCOCC1	-6%
COc1ccccc1NC(=O)CNC(=O)c1ccccc1C	20µM*
CC(c1ccccc1)n1c(-c2ccncc2)n[nH]c1=S (stereo not drawn)	-9%
CCn1c(SCC(=O)NNC(=O)Cc2ccccc2)nnc1-c1ccccc1	0%
Cc1[nH]c(=O)[nH]c(=O)c1/C=N/NC(=O)[C@H](C)NC(=O)OC(C)(C)C	-12%
CNCc1ccccc1Sc1ccc(O)c(O)c1	18µM*
CC(=O)c1c(C)nc2cc(Cl)ccc2c1N	-2%
COc1ccc(-c2csc(NC(=O)CN3C(=O)CCC3=O)n2)c(OC)c1	-15%
COCCNC(=O)c1ccc(-n2c(=O)c(=O)[nH]c3ccccc32)cc1	-21%
Cc1ccc(NC(=O)c2ccc(NCCc3ccccc3)c([N+](=O)[O-])c2)cc1F	-16%
COc1ccc(N(CC(O)Cn2c3ccccc3c3ccccc32)S(=O)(=O)c2ccccc2)cc1 (stereo not drawn)	11%
O=S(=O)(NCC1CCCO1)c1cc(Cl)ccc1Br (stereo not drawn)	-11%
CCCn1c(C)cc(C(=O)CN2C(=O)c3cccc(N)c3C2=O)c1C	?
Cc1cc(C)cc(OCCCOc2cccc3cccnc23)c1	-21%
Cc1cc2cc(C)c3nnc(SCC(=O)Nc4ccc(S(=O)(=O)N5CCCCC5)cc4)n3c2cc1C	-14%
Cc1cc(C)cc(OCC(=O)O/N=C(\N)c2ccccn2)c1	-7%

Next section:
SMILES	HPGD block
COc1cccc(Nc2ccc(Nc3cccc(OC)c3)nn2)c1	-5%
Cc1cc(NC(=O)c2ccc3c(c2)C(=O)N(Cc2cccnc2)C3=O)no1	-13%
CC(C)(C)c1csc(NC(=O)Cn2cnc3ccccc3c2=O)n1	20µM*
CC(C)(C)c1ccc(S(=O)(=O)NCc2ccc(C(=O)NCc3ccccn3)cc2)cc1	-22%
CCCCS(=O)CC(O)COCC (stereo not drawn)	-21%
COc1cc2c(cc1OC)C1=C(C#N)COCN1CC2	?
Cc1cc(C)nc(SCC(=O)Nc2ncc(Cc3cccc(Cl)c3)s2)n1	-8%
NS(=O)(=O)c1cc(Br)c(N=Nc2ccc(O)c3ncccc23)c(Br)c1	-3%
CCOC(=O)c1nc2nc(C)c(Cl)c(=O)n2[nH]1	-15%
O=C(COc1ccccc1)Nc1ccc(CSc2ccccc2)cc1	-9%
Cc1ccc(N=C/C(C(=O)C(F)(F)F)=C(\O)c2cccs2)cc1	-11%
COc1ccc(OC)c(S(=O)(=O)N2CCC(C(=O)NCC3CCCO3)CC2)c1 (stereo not drawn)	-10%
CC(C)(C)S(=O)(=O)c1c(C(=O)O)cccc1C(=O)O	-15%
Cc1cc(C)n(-c2nnc(NC(C)(C)C)nn2)n1	-10%
CC(C)c1[nH]nc2c1C(Cc1ccccc1)C(C#N)=C(N)O2 (stereo not drawn)	-14%
O=C1Nc2ccccc2C(O)(C(=O)NCc2ccco2)N1c1ccc(Cl)cc1 (stereo not drawn)	-3%
Cc1cc(/C=N\NC(=O)c2cccs2)c(C)n1-c1ccc2ncccc2c1	?
COC(=O)[C@@]1(Cc2ccccc2)[C@H]2c3cc(C(=O)N4CCCC4)n(CCSCCO)c3C[C@H]2CN1C(=O)c1ccccc1	-3%&-6%
CC1=C(C#N)C(NC(=O)C2CC2)(C(F)(F)F)C(=O)N1 (stereo not drawn)	-7%
C=C1CCC[C@]2(C)C[C@H]3OC(=O)[C@H](CNCCc4ccccc4OC)C3CC12 (stereo partly drawn)	-2%
CSc1ccc2c(c1)N(CC[C@H]1CCCCN1C)c1ccccc1S2	-3%
O=[N+]([O-])c1ccc2ncccc2c1CCc1c([N+](=O)[O-])ccc2ncccc12	-5%
CC1CCN(Cc2c(O)ccc3c2O/C(=C\c2ccco2)C3=O)CC1	-18%
c1csc(Cc2nn3c(-c4n[nH]c5c4CCC5)nnc3s2)c1	?
N#CCSc1nc2cc(C(=O)N3CCCC3)ccc2c(=O)n1Cc1ccccc1	-13%

Part of the list above, with each value named:
Compound: NS(=O)(=O)c1cc(Br)c(N=Nc2ccc(O)c3ncccc23)c(Br)c1
- HPGD block: -3%

Compound: CCOC(=O)c1nc2nc(C)c(Cl)c(=O)n2[nH]1
- HPGD block: -15%

Compound: O=C(COc1ccccc1)Nc1ccc(CSc2ccccc2)cc1
- HPGD block: -9%

Compound: Cc1ccc(N=C/C(C(=O)C(F)(F)F)=C(\O)c2cccs2)cc1
- HPGD block: -11%

Shown as labelled records: part of the list above.
> CC(C)(C)c1ccc(S(=O)(=O)NCc2ccc(C(=O)NCc3ccccn3)cc2)cc1
  HPGD block: -22%
> CCCCS(=O)CC(O)COCC (stereo not drawn)
  HPGD block: -21%
> COc1cc2c(cc1OC)C1=C(C#N)COCN1CC2
  HPGD block: ?
> Cc1cc(C)nc(SCC(=O)Nc2ncc(Cc3cccc(Cl)c3)s2)n1
  HPGD block: -8%

(cont.)
SMILES	HPGD block
Cc1nc(NC(=O)c2ccccc2)sc1-c1csc(Nc2ccc(F)cc2)n1	?
Cc1ccccc1Nc1nc(N)nc(CSc2nc3ccccc3c(=O)n2CCCO)n1	-17%
Cc1ccccc1Nc1nc(N)nc(COC(=O)c2cccc(S(=O)(=O)N(C)c3ccccc3)c2)n1	-26%
COc1cc(/C=N/NC(=O)C2(O)c3ccccc3-c3ccccc32)ccc1O	?
CC(=O)c1cccc(NC(=O)c2cc3nc(C)cc(C)n3n2)c1	?
CCCCCCC(=O)N1CCC(c2nc3c(nnn3Cc3ccccc3Cl)c(=O)[nH]2)CC1	20µM*
Cc1c(Cl)c([N+](=O)[O-])nn1CC(=O)N1CCc2ccccc2C1	-12%
CCCc1cc(SCC(=O)Nc2c(C)n(C)n(-c3ccccc3)c2=O)n2c(nc3ccccc32)c1C#N	?
O=C(CSCCO)N1CCc2ccccc21	2%
Cc1nc2ccc(C(=O)N3CCN(c4ccccn4)CC3)cc2s1	-11%
CCCCCn1c(N)c(-c2nc3ccccc3o2)c2c([N+](=O)[O-])nn(CC)c(=O)c21	-8%
COc1cc(C=O)ccc1OCCOCCOc1ccccc1Cl	?
Cc1ccc(C)c(Nc2ncnc3nc[nH]c23)c1	-3%
COC(=O)c1cc2sccc2n1CC(=O)Nc1cccc(SC)c1	-5%
COC(=O)c1sccc1NC(=S)N1CCC(C)CC1	-6%
CCC(C)n1cnc2c(c1=O)c1nc3ccccc3nc1n2Cc1ccc(OC)cc1 (stereo not drawn)	?
COc1cc([N+](=O)[O-])c2ncsc2c1	-4%
COc1ccc(/C=C(\NC(=O)c2cccs2)C(=O)Nc2ccc(C)cc2)cc1OC	-5%
COC(=O)C(NC(=O)c1ccccc1)c1ccccc1 (stereo not drawn)	-21%
Cc1cc(C)c2oc(-c3cccc(NC(=O)c4ccc(F)cc4)c3)nc2c1	?
COc1ccc2c(c1)O[C@@H]1c3ccc(OC)cc3OCC21 (stereo partly drawn)	0%
Cc1cc(N2CCC(C)CC2)n2nc(C)c(-c3ccccc3)c2n1	?
COC(=O)c1ccc(N2CCN(S(=O)(=O)c3ccc4ccccc4c3)CC2)c([N+](=O)[O-])c1	-8%
Cc1ccc(OCCn2cc(/C(N)=N/O)c3ccccc32)cc1C	-5%
O=C(CN1CCN(c2nc(-c3ccccc3)cs2)CC1)NNC(=O)c1ccc(Br)cc1	-2%

3 compounds from above, arranged by the value under HPGD block, falling:
SMILES	HPGD block
COc1ccccc1NC(=O)CNC(=O)c1ccccc1C	20µM*
Cc1ccc(N2C(=O)C3C4C=CC(CNC(=S)Nc5ccc(F)cc5)(O4)C3C2=O)cc1 (stereo not drawn)	18µM*
CC1CCN(C(=O)c2cc(-c3ccc(Cl)c(Cl)c3)on2)CC1	14µM*

Going on with the list:
SMILES	HPGD block
CC(C)Cc1nc2ccccc2n1CCc1ccccc1	-4%
CCOC(=O)c1ccc(NC(=S)NNC(=O)C2(C)CC2(Cl)Cl)cc1 (stereo not drawn)	28µM*
Cc1cccc(CN2CCN([C@@H](c3ccccc3)c3ccc(Cl)cc3)CC2)c1	-4%
Cc1c(C(=O)N2CCN(C(=O)c3ccco3)CC2)sc2nc(-c3ccc(F)cc3)cn12	3%
COc1cc(/C=N/OCC(=O)NC2CCCCC2)ccc1OCc1ccccc1	-22%
CN(C)CCNC(=O)/C(=C/c1ccc(-c2ccc(Cl)cc2)o1)NC(=O)c1ccccc1	-9%
C=CCN1c2ccccc2[C@]23C[C@@H](C(=O)OC)N(C(=O)c4cccs4)C2=NC(C(=O)OC)=C(C(=O)OC)[C@H]13	-5%
Cc1ccc(F)cc1NC(=O)C1CCCN(c2ncccn2)C1 (stereo not drawn)	-19%
CCCCC(=O)N(c1ccc(OCC)cc1)C1C=CS(=O)(=O)C1 (stereo not drawn)	-3%
CCCCC(O)(CCCC)C(=O)NN(C(=O)OCC)c1ccccc1	2%
CCNc1ccc(C(=O)OCC)cc1NC(=O)c1cccc(N(C)C)c1	-10%
CCN(CC)c1ccc(NC(=O)c2ccccc2F)cc1	-17%
CCSc1nnc(NC(=O)c2cccc(S(=O)(=O)N(C)c3ccc(C)cc3)c2)s1	-28%
CSc1nnc(Cc2ccc3c(c2)OCO3)o1	-12%
CN1C(=O)NC(NC(=O)c2ccco2)(C(F)(F)F)C1=O (stereo not drawn)	-13%
CC(=O)Oc1ccc2c(c1)C(=O)c1ccccc1CO2	-21%
CC1CC(=O)NN=C1c1ccc(N)c([N+](=O)[O-])c1 (stereo not drawn)	-19%
Clc1ccc(-c2nc3ccncc3[nH]2)cc1	?
Cc1cccc(-c2noc(CN(C(=O)c3ccc4c(c3)OCO4)C(C)C)n2)c1	-19%
O=c1c2ccccc2c(C=NC2CCS(=O)(=O)C2)c(O)n1-c1ccccc1 (stereo not drawn)	-11%
O=C(OCC(O)CO)c1ccccc1Nc1ccnc2cc(Cl)ccc12 (stereo not drawn)	?
CCCCNc1nnc(SCC(=O)N2CCN(S(=O)(=O)c3ccc4ccccc4c3)CC2)s1	-14%
O=C(CN1C(=O)CCC1=O)Nc1nc(-c2ccc(Oc3ccccc3)cc2)cs1	18µM*
CC(=O)c1nn(-c2cccc(Cl)c2)cc1C(=O)c1ccco1	-7%
COCC(C)NC(=O)COc1ccc(Cl)cc1Cl (stereo not drawn)	-27%

(next part)
SMILES	HPGD block
Cc1ccc(CSc2nc3c(c(=O)[nH]2)C(c2ccncc2)C2=C(CCCC2=O)N3)cc1 (stereo not drawn)	-8%
Cc1c(C(=O)Nc2ccccc2-c2ccccc2)cccc1[N+](=O)[O-]	-16%
Cc1c(C(=O)N2CCc3ccccc32)oc2c1C(=O)CC(C)(C)C2	-16%
Cc1cccc(N2C(=N)SCC2=O)c1C	-10%
COc1ccc(Cn2ccnc2)cc1[N+](=O)[O-]	0%
Cc1noc(C)c1S(=O)(=O)N1CCCC(C(=O)NCC2CCCO2)C1 (stereo not drawn)	-8%
CN(C)c1ccc(C(CNC(=O)c2ccccc2Br)c2c[nH]c3ccccc23)cc1 (stereo not drawn)	-6%
COC(=O)C1=C(C)N(Cc2ccccc2)C(=O)N[C@H]1c1ccco1	-1%
CC(=O)Nc1cc2ccc(OC(C)=O)cc2oc1=O	?
N#Cc1ccc(C23CC4(C2)[C@H](CN(Cc2ccc(C(F)(F)F)cc2)[C@@H]4c2ccccc2)C3c2ccc(Cl)nc2)cc1 (stereo partly drawn)	0%
COc1cc(C(=O)N2CCC(C(=O)Nc3cccc(C(C)=O)c3)CC2)cc(OC)c1OC	0%
Cc1nc(NC(=O)c2ccccc2)sc1Cc1ccc2c(c1)OCO2	?
CCCSc1nc(O)c(C2OC(=O)c3c2ccc(OC)c3OC)c(=O)n1-c1ccccc1 (stereo not drawn)	-7%
CCOC(=O)c1ccc(NC(=O)Cn2nnc(-c3ccc(F)cc3)n2)cc1	0%
CN1CCN(C(=O)c2ccc(C(C)(C)C)cc2)CC1	11µM*
CC(C)Cn1c(SCC(=O)c2ccc(Cl)s2)nnc1-c1ccco1	?
Cc1ccc[n+](CC(=O)/C=C2\N(C)c3ccccc3C2(C)C)c1	-1%
Cc1ccccc1Cn1cnc2c(cnn2C(C)(C)C)c1=O	-28%
CSc1nnc(C)c(/C=C/Nc2ccc(F)cc2)n1	-15%
CCN(CC)CC(=O)N1N=C(c2cccs2)CC1c1ccco1 (stereo not drawn)	-4%
CCCCn1c(SCC(=O)c2ccccc2)nc2c1c(=O)[nH]c(=O)n2C	-2%
COc1ccc(-c2csc(N(CCCN3CCOCC3)C(=O)c3ccco3)n2)cc1	-10%
CCn1c(SCC(=O)N2CCCC2)nc2ccccc2c1=O	?
COc1ccc(S(=O)(=O)Nc2ccccn2)c(C)c1C	-8%
